High-throughput results from PubChem BioAssay.
Calb biofilm kill: mixtures killing C. albicans biofilm. inhibition, % at 7.6 µM. C. albicans biofilm persisters + clotrimazole, fluorescence viability; primary screen in compound mixtures of four per well. hit rate 0.02% among 120,000;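 active means inhibition above 30.3% in the primary screen of four-compound pools, then above 30% when the compound was retested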;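 further: compounds exposed to preformed 24 h biofilms for 48 h; the number belongs to the whole pool; some results filed as inactive read as strong as hits; inactives centre near 12; 0% = biofilm with clotrimazole alone and 100% = kill control; retested singly at about 60 µM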
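Test system: C. albicans biofilms. Buffer or medium: RPMI/MOPS medium, pH 7.0. Timing: 48 h compound exposure at 37 °C. Technique: Alamar Blue fluorescence. Evaluation: percent inhibition of biofilm viability.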
* hit, by the source's call.

SMILES	Calb biofilm kill
O=[N+]([O-])c1cc2c(cc1/C=N/Nc1nc(N3CCCC3)nc(N3CCCC3)n1)OCO2	7
CCN(CC)S(=O)(=O)c1ccc(N2CCOCC2)c(NC(=O)c2cnccn2)c1	14
COc1ccc(CCn2c(NN=C(C)C)nc3c2c(=O)[nH]c(=O)n3C)cc1	6
Cc1nnc(SCc2cccs2)[nH]c1=O	6
NC(=O)Cc1nc(-c2ccccc2)cs1	13
CCN(CC)S(=O)(=O)c1ccc(Cl)c(NC(=O)c2ccc(C#N)cc2)c1	8
Cc1ccc(NC(=O)c2oc3ccccc3c2NC(=O)C2CCCO2)cc1C (stereo unspecified)	0
O=C(O)/C=C/c1cn(-c2ccccc2)nc1-c1cccc([N+](=O)[O-])c1	20
CC1CN(CCOc2ccccc2-c2ccccc2)CC(C)O1 (stereo unspecified)	12
COc1ccc(C(=O)CSc2nnc(NC(=O)C3CC(=O)N(c4cccc(OC)c4)C3)s2)cc1 (stereo unspecified)	10
CCN(CC)CCN(C(=O)C1=COCCO1)c1nc2cc3c(cc2s1)OCO3	10
Cc1cccc(C2c3[nH]c4ccccc4c3CCN2C(=O)c2ocnc2C)n1 (stereo unspecified)	16
O=C(CCC1CCCN(Cc2ccncc2)C1)NCc1ccc(F)c(F)c1 (stereo unspecified)	10
CCN(CC)S(=O)(=O)c1ccc(O)c(C(=O)OCC(=O)Nc2cc(C)c(C)cc2[N+](=O)[O-])c1	5
COCCCN(Cc1ccco1)C(=O)Cn1ncc2c(=O)oc3ccc(C)cc3c21	18
O=C(NCc1cccnc1)C(=O)NCC1OCCN1S(=O)(=O)c1ccccc1 (stereo unspecified)	12
Cc1ccc(C)c(N2CCN(C(=O)CCCN3C(=S)NC(C)(C)CC3C)CC2)c1 (stereo unspecified)	8
CCCOC(=O)/C(=C\C=C\c1ccccc1)NC(=O)c1ccccc1	4
O=C(NC(=S)NCCc1ccccn1)c1ccco1	11
CC(=O)N(c1ccccc1Cl)S(=O)(=O)c1ccc(Cl)cc1	10
Cc1cc(C(=O)COC(=O)c2ccc[nH]c2=O)c(C)n1CCc1ccc(F)cc1	2
CSCCCNC(=S)N1CCN(S(=O)(=O)c2cccc(C(F)(F)F)c2)CC1	21
COc1ccc(N=Nc2ccc(N)nc2N)cc1	18
Cc1cc2nc(Cl)c(Cl)nc2cc1C	7
CCn1c(=O)cc(C(F)(F)F)[nH]c1=S	18
Cc1ccc(N2C(=O)C(CN3CCOCC3)C2c2ccccc2)cc1 (stereo unspecified)	12
Cc1oc(-c2ccccc2Cl)nc1CSc1nc2c(c(=O)[nH]1)CCC2	12
O=c1[nH]nc(SCc2nnc(-c3ccc([N+](=O)[O-])cc3)o2)n1C1CCCCC1	21
Cc1ccc(NC(=O)C(=O)Nc2ccc(C)cn2)nc1	14
Cc1ccccc1C(=O)NC(=S)NCCC1=CCCCC1	9
Cc1ccc(N(CC(O)CN2CCCCC2)S(=O)(=O)c2ccccc2[N+](=O)[O-])cc1 (stereo unspecified)	25
CCCCCC1CC(CC/C(C)=N/NC(N)=O)C(=O)O1 (stereo unspecified)	29
Cc1ccc(-c2nc(N)sc2CC(=O)OCC(=O)NCC2CCCO2)cc1 (stereo unspecified)	13
CC1=C(C(=O)OC(C)C)C(c2cccs2)C(C(=O)OC(C)C)=C(C)N1	11
CC1C(=O)CC(c2ccc([N+](=O)[O-])cc2)NC1c1ccc([N+](=O)[O-])cc1 (stereo unspecified)	33
CC(=O)N(c1ccccc1)C(C)c1nc(C#N)c(C#N)nc1C (stereo unspecified)	14
CCC1SC(CC)C(=O)N(CC(=O)NC2CCCCC2)C1=O (stereo unspecified)	4
O=C(N/N=C/c1ccc(OC(F)F)cc1)c1cccc(S(=O)(=O)N2CCOCC2)c1	2
COc1ccc(-c2c(C#N)c(N)n(N)c(=O)c2C#N)cc1Cl	9
COc1cccc(-n2cnc3sc(C)c(C)c3c2=O)c1	7

A different layout for some results above:
Molecule | Calb biofilm kill
CCN(CC)S(=O)(=O)c1ccc(Cl)c(NC(=O)c2ccc(C#N)cc2)c1 | 8
Cc1ccc(NC(=O)c2oc3ccccc3c2NC(=O)C2CCCO2)cc1C (stereo unspecified) | 0
O=C(O)/C=C/c1cn(-c2ccccc2)nc1-c1cccc([N+](=O)[O-])c1 | 20
CC1CN(CCOc2ccccc2-c2ccccc2)CC(C)O1 (stereo unspecified) | 12
COc1ccc(C(=O)CSc2nnc(NC(=O)C3CC(=O)N(c4cccc(OC)c4)C3)s2)cc1 (stereo unspecified) | 10
CCN(CC)CCN(C(=O)C1=COCCO1)c1nc2cc3c(cc2s1)OCO3 | 10
Cc1cccc(C2c3[nH]c4ccccc4c3CCN2C(=O)c2ocnc2C)n1 (stereo unspecified) | 16
O=C(CCC1CCCN(Cc2ccncc2)C1)NCc1ccc(F)c(F)c1 (stereo unspecified) | 10
CCN(CC)S(=O)(=O)c1ccc(O)c(C(=O)OCC(=O)Nc2cc(C)c(C)cc2[N+](=O)[O-])c1 | 5
COCCCN(Cc1ccco1)C(=O)Cn1ncc2c(=O)oc3ccc(C)cc3c21 | 18
O=C(NCc1cccnc1)C(=O)NCC1OCCN1S(=O)(=O)c1ccccc1 (stereo unspecified) | 12
Cc1ccc(C)c(N2CCN(C(=O)CCCN3C(=S)NC(C)(C)CC3C)CC2)c1 (stereo unspecified) | 8
CCCOC(=O)/C(=C\C=C\c1ccccc1)NC(=O)c1ccccc1 | 4
O=C(NC(=S)NCCc1ccccn1)c1ccco1 | 11
CC(=O)N(c1ccccc1Cl)S(=O)(=O)c1ccc(Cl)cc1 | 10
Cc1cc(C(=O)COC(=O)c2ccc[nH]c2=O)c(C)n1CCc1ccc(F)cc1 | 2
CSCCCNC(=S)N1CCN(S(=O)(=O)c2cccc(C(F)(F)F)c2)CC1 | 21
COc1ccc(N=Nc2ccc(N)nc2N)cc1 | 18
Cc1cc2nc(Cl)c(Cl)nc2cc1C | 7
CCn1c(=O)cc(C(F)(F)F)[nH]c1=S | 18
Cc1ccc(N2C(=O)C(CN3CCOCC3)C2c2ccccc2)cc1 (stereo unspecified) | 12
Cc1oc(-c2ccccc2Cl)nc1CSc1nc2c(c(=O)[nH]1)CCC2 | 12
O=c1[nH]nc(SCc2nnc(-c3ccc([N+](=O)[O-])cc3)o2)n1C1CCCCC1 | 21
Cc1ccc(NC(=O)C(=O)Nc2ccc(C)cn2)nc1 | 14
Cc1ccccc1C(=O)NC(=S)NCCC1=CCCCC1 | 9
Cc1ccc(N(CC(O)CN2CCCCC2)S(=O)(=O)c2ccccc2[N+](=O)[O-])cc1 (stereo unspecified) | 25
CCCCCC1CC(CC/C(C)=N/NC(N)=O)C(=O)O1 (stereo unspecified) | 29
Cc1ccc(-c2nc(N)sc2CC(=O)OCC(=O)NCC2CCCO2)cc1 (stereo unspecified) | 13
CC1=C(C(=O)OC(C)C)C(c2cccs2)C(C(=O)OC(C)C)=C(C)N1 | 11
CC1C(=O)CC(c2ccc([N+](=O)[O-])cc2)NC1c1ccc([N+](=O)[O-])cc1 (stereo unspecified) | 33
CC(=O)N(c1ccccc1)C(C)c1nc(C#N)c(C#N)nc1C (stereo unspecified) | 14
CCC1SC(CC)C(=O)N(CC(=O)NC2CCCCC2)C1=O (stereo unspecified) | 4

Next section:
SMILES	Calb biofilm kill
Cc1ccc(N2CC(=O)Nc3c(oc4nc(-c5ccccc5)cc(C)c34)C2=O)cc1	16
CN(C)CCNc1ccc(Cl)cc1[N+](=O)[O-]	5
N=C1C(c2ccccc2)=C(O)CN1c1cccc(S(N)(=O)=O)c1	24
CC(=O)c1cc(C(c2csc(C(C)=O)c2)c2csc(C(C)=O)c2)cs1	14
O=C(CSc1cccc[n+]1[O-])c1ccc(Cl)s1	3
Cn1cccc1CC(=O)NNC(=O)Nc1ccc(Cl)cc1	18
O=C(O)CCC(=O)Nc1ccc(/C=C/C(=O)C2CC2)cc1	5
Cc1cc(S(=O)(=O)NCc2ccccc2)ccc1OCC(=O)Nc1cccc([N+](=O)[O-])c1	6
O=C(COC(=O)CCN1C(=O)c2cccc([N+](=O)[O-])c2C1=O)NC1CCS(=O)(=O)C1 (stereo unspecified)	4
Cc1ccc2nc(NC(=O)COC(=O)c3ccccn3)sc2c1	21
CC(C)(C)S(=O)(=O)Cc1nc(-c2ccc(Cl)c(Cl)c2)cs1	10
CCNC(=O)COC(=O)c1cc(S(=O)(=O)N2CCCCC2)ccc1C	18
O=C(CN1CCCCC1)N1CCCc2c1c(=O)oc1ccc(OCc3ccccc3)cc21	19
CCn1ccnc1CN1CCN(CC=C(C)C)C(CCO)C1 (stereo unspecified)	9
COc1ccccc1/C=C/C(=O)NCC(=O)N/N=C/c1ccc2c(c1)OCO2	24
CNC(=O)COC(=O)c1cc(-c2ccccc2)nn1-c1ccccc1	11
O=C(CCCCCCCCCCC(=O)NCc1cccnc1)NCc1cccnc1	18
Nc1nc(NCc2ccco2)nc(N2CCN(Cc3ccccc3)CC2)c1[N+](=O)[O-]	4
Cc1ccc(S(=O)(=O)N(CC(=O)N2CCC(C)CC2)c2ccccc2)cc1	1
CCCCNC(=O)c1c[nH]c2ccc(S(=O)(=O)N3CCOCC3)cc2c1=O	9
CC1CCCC(CC(=O)O)(CC(=O)O)C1 (stereo unspecified)	11
CC1CCN(C2=NC(=O)/C(=C/c3cn[nH]c3-c3ccccc3)S2)CC1	15
CCOCCOc1cccc(C(=O)NC(c2ccccc2)C(C)C)c1 (stereo unspecified)	5
CC(=O)Nc1cccc(OCc2c(F)cccc2Cl)c1	-1
COc1ccc2c(c1)SCC(=O)N2C	13
CN(C)c1ccc(/C=N/NC(=O)C2CC2c2ccccc2)cc1 (stereo unspecified)	13
Cc1ccc(C(=O)Cn2nc(C(=O)O)c3ccccc3c2=O)cc1C	13
O=C(NN(C(=O)c1ccccc1)c1ccccc1)c1ccccc1	24
O=C1C2C3C=CC(C3)C2C(=O)N1c1ccc(-c2nc3ccccc3c(=O)o2)cc1 (stereo unspecified)	16
CC(=O)Nc1ccc(-c2ccc3nnc(C)n3n2)cc1	-3
Cc1ccccc1-c1nnc(SCC(=O)N(CC(C)C)c2c(N)n(CC(C)C)c(=O)[nH]c2=O)n1C	21
C#CCOCCOCCOCCNc1nc(N2CCOCC2)nc(N2CCN(C(=O)[C@H](CCCCN)n3cc([C@@H](N)CO)nn3)CC2)n1	21
Cc1ccc(S(=O)(=O)/N=C2/NC(=O)/C(=C/c3ccc(Br)o3)S2)cc1	18
C=CCn1c(C)cc(C(=O)COc2ccc(C)nc2[N+](=O)[O-])c1C	9
Cc1cc(N/N=C/c2ccncc2)nc2ccccc12	12
Cc1nc(SCc2cccc(C(=O)O)c2)nc2c1CCCC2	5
COc1cc(CCC(=O)OCC(=O)Nc2ccccc2C#N)cc(OC)c1OC	18
O=C(O)CCCC(=O)NNc1ncnc2ccccc12	10
COC(=O)c1cc(S(=O)(=O)Nc2cc(S(=O)(=O)N(C)C)ccc2C)oc1C	15
CCOC(=O)c1c(NC(=S)Nc2ccc(OCC)cc2)sc2c1CCN(C)C2	19
CC1(C)Cc2c(sc3ncnc(NNC(=S)NCc4ccccc4)c23)CO1	22
O=C(COc1ccc(Cl)cc1)Nc1ccc2c(c1)CCC2	9
Cc1cc(/C=N/NC(=O)Cn2c3ccccc3c(=O)c3ccccc32)c(C)n1-c1ccc(Cl)cc1	18
O=C(COC(=O)CCC(=O)c1ccc(Cl)cc1)NC1CC1	13
CN(CCO)c1cc(N2CCCCC2)c2nonc2c1[N+](=O)[O-]	15
O=[N+]([O-])c1cc([N+](=O)[O-])c2cccnc2c1Oc1ccccc1O	11
O=C(Cn1ccc([N+](=O)[O-])n1)N1CCCCC1	5
O=c1c(Cl)c(NCc2ccco2)cnn1C12CC3CC(CC(C3)C1)C2	13
Cn1c(/C(C#N)=C/c2ccc(-c3ccc(S(N)(=O)=O)cc3)o2)nc2ccccc21	7
CCn1cc(C(=O)O)c(=O)c2cc(F)c(N3CCN(S(=O)(=O)c4ccc(NC(=O)OC)cc4)CC3)cc21	11
CN(C)c1ccc(NC(=O)COC(=O)c2cc(=O)c3ccccc3o2)cc1	0
O=c1c(Cc2c(F)cccc2Cl)c(O)ccn1CC1CCCO1 (stereo unspecified)	10
O=C(CCc1nc2ccccc2[nH]c1=O)N/N=C/c1ccccc1	15
COCc1cc(=O)n2[nH]c(-c3cccs3)cc2n1	18
O=C(O)c1ccc(N/N=C/C(Br)=C/c2ccccc2)cc1	9
C=CCNC(=O)CC(=O)N/N=C/c1cccs1	5
CC1CCCCC1NC(=O)COC(=O)C12CC3CC(CC(Cl)(C3)C1)C2 (stereo unspecified)	16
Cc1ccc(-c2nc(N)sc2CC(=O)OCC(=O)NC2CCCC(C)C2C)cc1 (stereo unspecified)	17
O=C(NC(=S)N1CCN(C/C=C/c2ccccc2)CC1)c1ccco1	13
C=CCN(CC(=O)NCc1ccc(F)cc1)C(=O)c1csnn1	7

Going on with the list:
SMILES	Calb biofilm kill
O=C1CCC(=O)N1c1ccc(NCc2ccccc2Cl)c([N+](=O)[O-])c1	10
N#CC(C#N)=C1C=CC=CN1/C(=C\c1ccccc1)C(=O)c1cccs1	11
C=CCN(c1ccc(C(=O)Nc2ccc(C)c(C)c2)cc1)S(C)(=O)=O	12
CN(CC(=O)Nc1ccccc1F)CC(=O)Nc1ccc(F)c(F)c1F	11

Only part of the results is shown. The share of hits here may be higher or lower than overall.
